Screens deposited in PubChem by Broad Institute.
Tg IFNy HTS – blocks Toxoplasma gondii growth in the presence of IFN-gamma; Toxoplasma gondii growth in IFN-gamma-treated host cells; stronger effect = lower value; reference of the scale not given here; activity change, negative = inhibition, %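 (about 20 µM by stock and volumes)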; 3.8% of 69,000 active; AID 1259416;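 active means below -70%; inconclusive means fit judged invalid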;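 further: host cells are HeLa cells infected with Toxoplasma gondii; parasite growth read as luciferase light; one replicate is shown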
Starred values were filed as active, the others as inactive; i = inactive; ? = inconclusive. Only part of the results is shown; rates above refer to the full screens.

Structure	Tg IFNy HTS
Cc1ccc(S(=O)(=O)N2CCC3(CC2)NCCN=C3NCc2ccccc2)c(C)c1	-7
CO[C@H]1CN(C)C(=O)c2ccc(NC(=O)c3nc4ccccc4s3)cc2OC[C@@H](C)N(Cc2cccnc2)C[C@H]1C	11
CCN1c2cc(F)ccc2C(=O)NC12CCN(C(=O)c1ccc(OC)cc1OC)CC2	16
CSc1cccc(NC(=O)c2cncc(NS(=O)(=O)c3ccc(C)cc3C)c2)c1	33
CCOC(=O)Cc1ccc(NC(=O)Nc2ccc(-c3nc(-c4ccccc4)co3)cc2)cc1	-20
CC1CCN(S(=O)(=O)c2ccc3c(c2)CCC(=O)N3CC(=O)Nc2ccc(C(C)C)cc2)CC1	-73*
CN1CCN(CCO)C(=O)C12CCN(Cc1nccn1C)CC2	3
Cn1cc(-c2csc(NC(=O)CCc3nc4cc(Cl)ccc4n3C)n2)cn1	3
Cc1nc(-c2ccccc2)nc2c1CCN(C)CC2	7
C[C@@H](NC(=O)C[C@H]1CC[C@@H]2[C@H](COC[C@@H](O)CN2Cc2ccc(C(F)(F)F)cc2)O1)c1ccccc1	13
Cc1ccc(C(=O)N2CCO[C@]3(CCC[C@H]3COc3cccnc3)C2)o1	14
CCCC(NC(=O)C1C=CCN1S(C)(=O)=O)c1cccs1 (stereo unspecified)	114
C[C@@H]1CN([C@@H](C)CO)C(=O)CCCn2cc(nn2)CO[C@H]1CN(C)Cc1ccccc1	347
COc1ccc(S(=O)(=O)N(C)C[C@H]2OCCCC[C@H](C)Oc3ccc(NC(=O)Cc4ccccc4)cc3C(=O)N([C@H](C)CO)C[C@H]2C)cc1	-48
COc1ccc(CN2CCc3c([nH]c4ccccc34)C2c2cnn(C(C)C)c2)c(F)c1 (stereo unspecified)	33
CCOc1ccc(S(=O)(=O)N2CCc3nc(-c4cccc(OC)c4)sc3C2)cc1	-23
C[C@H](NC(=O)[C@@H]1[C@@H](CO)[C@@H]2Cn3c(ccc(-c4ccccc4)c3=O)[C@@H]2N1C)c1ccccc1	8
COc1cccc(-c2nc(Cc3nc(-c4ccccc4)oc3C)no2)c1	53
CCCNC(=O)N(C)C[C@@H]1Oc2ncc(C#CC3CCCCC3)cc2C(=O)N([C@@H](C)CO)C[C@H]1C	30
Cc1ccccc1CCC1CCCN(Cc2nnc(-c3cccnc3)o2)C1 (stereo unspecified)	4
Cc1c(N)n[nH]c1-c1cccc(Cl)c1	-32
CC(C)N(C)Cc1n[nH]c2c1CCN(C(=O)c1csnn1)C2	-7
Cc1cccnc1CN1CCN(Cc2cn(CCC(N)=O)c3ccccc23)CC1	50
CC(C)NC(=O)N1[C@@H](CO)[C@@H](c2ccccc2)C12CN(C(=O)Cc1cccnc1)C2	15
CC(C)(C)NC(=O)NCc1cccnc1	40
CCCN1CCC2(CC1)NC(=O)N(CC1CCN(C(=O)c3snnc3CC)CC1)C2=O	28
O=C(Nc1ccc(Cl)cc1)n1nccc1/C=C/c1cccs1	0
CC(=O)Nc1c(I)c(C(=O)N[C@H]2C(O)O[C@H](CO)[C@@H](O)[C@@H]2O)c(I)c(N(C)C(C)=O)c1I (stereo partly specified)	2
CCCCOc1ccc(-c2cc3c(=O)n(Cc4nc(-c5ccc(OCC)cc5)oc4C)ccn3n2)cc1	-3
Cc1ccc(N2CCN(C(=S)c3ccc(-c4cccc([N+](=O)[O-])c4)o3)CC2)cc1	25
Cc1nn(-c2ccc(F)cc2)c(C)c1CNCC1(c2cccc(F)c2)CCOCC1	6
CCCN1CCc2c(C(=O)N3CCN(C)CC3)n[nH]c2C1	6
Cc1cc(C2CCCN2C(=O)Cn2nc(C(F)(F)F)c3c2CCCC3)on1 (stereo unspecified)	1
CS(=O)(=O)N1CCC(NC(=O)CC2C(=O)NCCN2Cc2ccccc2)CC1 (stereo unspecified)	1
CC(=O)Nc1nc2c(C)cc(C)cc2s1	93
COCCC(=O)c1cc2ccc(-c3ccc(C(F)(F)F)cc3)cn2c1-c1cocn1	21
O=S(=O)(Nc1cccc2nsnc12)c1cc(Cl)sc1Cl	95
COc1ccc2c3c(n(C)c2c1)[C@@H](CO)N(C(=O)c1ccc(F)cc1)CC31CN(C(=O)Nc2ccc(F)cc2)C1	19
O[C@H]1CCN(Cc2nccs2)[C@@H]1Cc1cccnc1	5
Cc1c2c(=O)[nH]ncc2c(-c2ccccc2)n1CCSCc1c(F)cccc1Cl	-21
CCCCCC(=O)Nc1ccc2c(c1)Cc1ccccc1-2	71
CCc1ccc(S(=O)(=O)N2CCc3nc(-c4ccc(OC)c(OC)c4)sc3C2)cc1	21
COCCN(C)c1ccc2ccc(C(=O)N3CCC(N(C)C)C3)cn12 (stereo unspecified)	1
O=S(=O)(c1cccs1)N1CCC2(CC1)NCCN=C2NCc1cccc(F)c1	20
CN1CCC2(CC1)CN(C(=O)COCC(F)(F)C(F)F)CCN2C	0
CC(Cc1cccs1)Nc1ccnc(C(=O)NCc2cccnc2)c1 (stereo unspecified)	-8
COC(=O)c1[nH]ncc1CN(C)Cc1cnn(-c2ccc(F)cc2)c1	-15
COc1ccc(-c2nnc(-c3nc(N4CCC5(CC4)OCCO5)c4ccccc4n3)o2)cc1	111
COc1ccc2n[nH]c(CN(C)Cc3ccc(-n4cccn4)cc3)c2c1	40
COC(=O)c1cc(=O)n2c(nc3ccccc32)s1	-7
COc1ccc(C(=O)Nc2cccc3cccnc23)cc1OC	18
CN1Cc2c(C(=O)Nc3cccc(Cl)c3)ncn2-c2ccccc2S1(=O)=O	-7
CN1C(=O)c2cc(NC(=O)Nc3ccc(Cl)cc3)ccc2OC[C@H]2O[C@H](CC(=O)NCCN3CCCCC3)CC[C@H]21	1
COc1ccc(CN(C)C[C@@H]2OCCCC[C@@H](C)Oc3ccc(NC(=O)C4CCCCC4)cc3C(=O)N([C@H](C)CO)C[C@H]2C)cc1	12
COc1ccc2cc(-c3cc(-c4cc(Cl)cc(Cl)c4)nn3[C@@H](C)c3ccc(C(=O)NCCC(=O)O)cc3)ccc2c1	-73*
CC(C)[C@@H]1C(=O)N[C@@H](c2cccc(Cl)c2)CC=CC[C@H](C)Oc2ccccc2C(=O)N1C (mixture of isomers)	-48
Cc1cc2ccccc2n1CCNC(=O)c1cc2n(n1)CCCN(C)C2	-1
CC(=O)Nc1ccc(O)c(C(=O)CC(=O)c2ccccc2)c1	292
COc1ccccc1NC(=O)N1CC(=O)N2[C@H](CO)[C@@H](c3ccc(C#CC(C)C)cc3)[C@@H]2C1	-21
O=C(NCC[C@H]1CC[C@H](NC(=O)c2ccncc2)[C@H](CO)O1)Nc1ccc(Cl)cc1	5

Next part
Structure	Tg IFNy HTS
COCCCn1c(SCC(=O)c2ccc(Cl)cc2)nnc1-c1csc(C)n1	49
COCC(=O)N1CCC2(CC1)CN(S(C)(=O)=O)[C@@H](CO)c1[nH]c3cc(OC)ccc3c12	4
O=C(CCC1Nc2c3ccccc3nc(=S)n2C1=O)NCCCN1CCN(c2ccccc2F)CC1 (stereo unspecified)	-42
CN1C(=O)c2cc(NC(=O)C3CCOCC3)ccc2OC[C@H]2O[C@@H](CC(=O)NCc3ccccc3F)CC[C@H]21	-11
O=S(=O)(Nc1ccc2c(c1)OCCO2)c1csc(-c2cc(C(F)(F)F)on2)c1	-46
CCOc1ccc(-c2nc(Cn3nnc(C(=O)Nc4ccc(C)cc4C)c3C)c(C)o2)cc1	60
Cc1noc(C)c1S(=O)(=O)N(C)C[C@H]1OCCCC[C@@H](C)Oc2ccc(N(C)C)cc2C(=O)N([C@H](C)CO)C[C@@H]1C	i
O=S(=O)(c1cc(Cl)sc1Cl)n1cccc1	22
COC(=O)C(O)(CC(=O)Nc1ccc(Cl)cc1Cl)C(F)(F)F (stereo unspecified)	7
CC(C)Nc1nc2c(c(NC3CC3)n1)CCN(C(=O)c1ccco1)CC2	-32
CC(C)CCn1nc(C(=O)N2CCOCC2)c2c1CCN(C(=O)c1cc(-c3ccsc3)n[nH]1)C2	-8
Cc1ccc(-c2nc(Cn3nnc(C(=O)NCCc4ccc(Cl)cc4)c3C)c(C)o2)cc1	100
Cc1cccc(N2CCC(NCCSc3ncn[nH]3)CC2)c1	-7
COC(=O)[C@@H]1C[C@@H](NC(=O)c2cc(C(C)C)[nH]n2)CN1C	5
CC(=O)N1CCC(N(C)Cc2snnc2C)CC1	-1
O=C(Nc1csc(C(F)(F)F)c1-c1ccccc1)c1ccco1	61
O=C(Cn1c(=O)ccc2cc(S(=O)(=O)N3CCCC3)ccc21)N1CCC2(CC1)OCCO2	85
Cc1oc(-c2cccc(Cl)c2)nc1Cn1nnc(-c2nc(-c3ccncc3)no2)c1C	12
Cc1nonc1CN(C)CC(=O)NCc1ccccn1	-2
CN(C)C(=O)N1C[C@@H]2CN(Cc3ccoc3)CCO[C@@H]2C1	8

Next part
SMILES	Tg IFNy HTS
COc1ccc(-c2c(C#N)c(C(C)=O)[nH]c(=O)c2C#N)cc1	39
O=C(C1CCOCC1)N1CC(=O)N2[C@H](CO)[C@@H](c3ccc(/C=C/c4ccccc4)cc3)[C@H]2C1	5
CSc1ncc(Cl)c(C(=O)O)n1	26
COc1ccc(S(=O)(=O)Nc2ccc3c(c2)C(=O)N([C@H](C)CO)C[C@@H](C)[C@@H](CN(C)Cc2ccc(C(F)(F)F)cc2)OCCCC[C@@H](C)O3)cc1	-11
Cc1ccc2ncccc2c1CNc1nc(C2CCCC2)nc2c1CNC2	3
COc1ccc(C(=O)N2CCC3(CC2)NC(=O)c2cc(C)ccc2N3C)cc1OC	-45
O=C(CC1=CCCCC1)N1CCc2c(cc(-c3cccc(F)c3)c(=O)n2CCN2CCCCC2)C1	6
Cc1cccc(CN2C3COCC2CC(OCC2CC2)C3)c1 (stereo unspecified)	-30
CCCCc1ncc(-c2nccn2C(C)Cn2cccn2)[nH]1 (stereo unspecified)	4
COc1ccc(C)cc1NC(=O)C(=O)NCCc1sc(-c2cccc(F)c2)nc1C	53
CC(=O)NCCC1CCCCN1Cc1ccccc1-c1ccccc1 (stereo unspecified)	2
NCC1Cc2cc(-c3ccc(C(=O)N4CCCCC4)o3)cc(F)c2O1 (stereo unspecified)	53
CCOC[C@H]1CCC2C(CCN2C(=O)CCc2ccccc2)O1 (stereo partly specified)	164
CN(Cc1nc2ccccc2[nH]1)C(=O)CCCCN1Cc2ccccc2C1=O	-14
Cc1ccccc1-c1cnc2c(c1)C(=O)N([C@@H](C)CO)C[C@@H](C)[C@@H](CN(C)Cc1ccccc1F)O2	?
C[C@H]1CN([C@@H](C)CO)C(=O)c2cc(-c3ccc(C#N)cc3)cnc2O[C@H]1CN(C)Cc1cccnc1	-17
COc1ccc(Cn2nnnc2CN2CCN(c3ccc(F)cc3)CC2)cc1	7
COc1ccccc1-n1cc(C(=O)N2CCc3c(nc[nH]c3=O)C2)cn1	34
COc1ccc2c(c1)CC(C(=O)NCCc1cnccn1)CO2 (stereo unspecified)	-1
Cc1noc(C)c1C(=O)Sc1cccc(C(F)(F)F)c1	5
COc1ccc(CN(C)C[C@@H]2Oc3ccc(NC(=O)Nc4ccc5c(c4)OCO5)cc3CC(=O)N([C@H](C)CO)C[C@@H]2C)cc1	7
O=C(c1ccc(CN2CCOCC2)cc1)N1CCN(C2CC2)CC1	13
CC(C)N(C)Cc1ncn2c1CN(C(=O)c1ccncc1)CCC2	13
O=C(C1CCC1)N1CC(=O)N2[C@@H](CO)[C@H](c3ccc(Br)cc3)[C@@H]2C1	-29
O=C(c1ccc(Cl)cc1)N1CCN(S(=O)(=O)c2cc3c4c(c2)CCC(=O)N4CCC3)CC1	-64
Cc1ccc(CC2(O)CC(C)N(C)CC2C)cc1 (stereo unspecified)	11
CC(C)Cc1cc(C(=O)N2CCN(c3nsc4ccccc34)CC2)n(C)n1	-35
Cc1ccc(NC(=O)CSCC(=O)O)cc1	3
CCN(C)Cc1ccc(-c2nc(-c3cccnc3)cc(=O)[nH]2)cc1	10
Cc1ccc2[nH]c3c(c2c1)CCNC3=O	-93*
CC(=O)c1ccc(CN2CCC(C(O)CC(C)C)CC2)cc1 (stereo unspecified)	-8
CC(C)CN1c2ccc(F)cc2[C@@H]2CN(C(=O)c3ccco3)CC[C@H]21	-38
COc1cc(OC)cc(-c2ccc(OC)nn2)c1	42
c1coc(CN2CCc3ncnc(N4CCCC4)c3CC2)c1	0
CCOc1ccc(-c2nc(CN3CCN(C(=O)Nc4ccccc4C(F)(F)F)CC3)c(C)o2)cc1	1
Cc1nc(-n2cnnc2)ccc1-c1cccc(Cl)c1Cl	-84*
Cc1cccc2[nH]c(CCN(C)C(=O)c3cc(C4CC4)[nH]n3)nc12	13
C[C@@H]1CN([C@H](C)CO)C(=O)c2c(c3ccccc3n2C)-c2ccccc2CO[C@@H]1CN(C)C(=O)Nc1ccccc1C(F)(F)F	-45
OCCNc1cc(-c2ccc3c(c2)OCO3)c2cc[nH]c2n1	3

Among those listed so far, these contain two or more sulfur atoms.
SMILES	Tg IFNy HTS
CSc1cccc(NC(=O)c2cncc(NS(=O)(=O)c3ccc(C)cc3C)c2)c1	33
CCCC(NC(=O)C1C=CCN1S(C)(=O)=O)c1cccs1 (stereo unspecified)	114
CCOc1ccc(S(=O)(=O)N2CCc3nc(-c4cccc(OC)c4)sc3C2)cc1	-23
O=S(=O)(Nc1cccc2nsnc12)c1cc(Cl)sc1Cl	95
CCc1ccc(S(=O)(=O)N2CCc3nc(-c4ccc(OC)c(OC)c4)sc3C2)cc1	21
O=S(=O)(c1cccs1)N1CCC2(CC1)NCCN=C2NCc1cccc(F)c1	20
COCCCn1c(SCC(=O)c2ccc(Cl)cc2)nnc1-c1csc(C)n1	49
O=S(=O)(Nc1ccc2c(c1)OCCO2)c1csc(-c2cc(C(F)(F)F)on2)c1	-46
O=S(=O)(c1cc(Cl)sc1Cl)n1cccc1	22
